# High-throughput results (PubChem BioAssay)
# VACV mCherry inh – inhibitors of vaccinia virus infection (mCherry reporter signal); Vaccinia virus mCherry reporter infection, fluorescence; about a quarter of the inactives have no number; Potency, µM (doses to about 36.5 µM), without a hit: at the highest dose activity change, negative = inhibition, actives largely listed as inhibitors; 310,000 compounds, 0.63% hits; active = well fitted inhibition curve with a large enough effect; inconclusive = small, poorly fitted or top-dose-only effect; inactive = no such curve, though single readings can be large or run the other way; tested in A549 cells; further: nearly all actives have a fitted effect of over 35% in size; inactives centre near -10
# Vaccinia Venus – vaccinia inhibition (Venus reporter). Vaccinia virus Venus reporter expression, fluorescence. Potency, µM (highest dose often 36.5 µM), inactives show at the top dose activity change, negative = inhibition, usual class: inhibitors. 330,000 compounds, 0.46% hits. AID 720580; active means well fitted inhibition curve with a large enough effect; inconclusive means small, poorly fitted or top-dose-only effect; inactive means no such curve, though single readings can be large or run the other way; tested in A549 cells; further: nearly all actives have a fitted effect of over 30% in size; inactives centre near -10
# * = called active by the depositor; i = inactive; ? = inconclusive; · = not tested or not shown; & = joins results of further samples; [ ] = dose if it differs, or a comment. On the % scale 0 is the no-effect control and ±100 the full control effect; potency means the concentration at half of the fitted maximal effect.
SMILES,VACV mCherry inh,Vaccinia Venus
CCn1c(=O)c(CCC(=O)NCC2CCCO2)c(C)c2c(C)nn(-c3ccccc3)c21 (configuration not stated),-4.6%[7.34 µM],-3.0%[7.34 µM]
CCOC(=O)c1c(/N=C/N(C)C)sc(C=O)c1-c1ccccc1,i,16.3%
O=c1oc(-c2ccc(Cl)cc2[N+](=O)[O-])nc2ccccc12,-9.4%,-20.1%
CC(OC(=O)c1ccccc1O)C(=O)Nc1cccc(Cl)c1 (configuration not stated),i,-24.0%
CCC(=O)Nc1ccc(-c2nc3ncccc3o2)cc1C,-12.6%,-10.2%
O=C(CNC1CCCC1)Nc1ccc(N2CCCCCC2)cc1,-18.3%,-15.7%
CCc1c(C)nc(SCC(=O)c2ccc(C)c(C)c2)[nH]c1=O,i,-8.5%
O=C(O)CCCC(=O)Nc1cccc([N+](=O)[O-])c1,-13.1%,4.0%
CC(C)CN(CC(C)C)C(=O)Cc1coc2ccc3ccccc3c12,i,-15.5%
CS(=O)c1nc(-c2ccc(Br)cc2)cc(-c2ccccc2)c1C#N (configuration not stated),?,?
CC(C)(O)C#Cc1ccc(C(=O)NCCN2Cc3ccccc3OC(c3ccccc3F)C2)o1 (configuration not stated),-10.4%,1.3%
NC(=O)c1ccccc1N,-6.6%,-2.9%
COc1ccc(-c2nc3c(n2O)CCCC3=O)cc1OC,·,1.1%
COC(=O)C1C2C=CC3(CN(Cc4cccs4)C(=O)C13)O2 (configuration not stated),0.1%,-8.1%
COc1ccc(OC)c2sc(N3CCN(C(=O)c4ccco4)CC3)nc12,-7.9%,-14.2%
CN1C(=O)CSc2ccc(NC(=O)Nc3ccccn3)cc21,-12.3%,-11.4%
Cc1nn(-c2ccccc2)c(N)c1C(O)(CC(=O)C(F)(F)F)C(F)(F)F (configuration not stated),-6.4%,4.9%
Nc1cccc(P(=O)(c2ccccc2)c2ccccc2)c1,-11.4%,-1.2%
FC(F)(F)c1ccnc(Sc2n[nH]c(C(F)(F)F)n2)c1,-2.3%,-4.8%
COC(=O)c1cc2ccccc2c(-c2c(O)ccc3ccccc23)c1O,?,?
CN(CCc1ccccn1)S(=O)(=O)c1ccc(F)cc1,·,19.9%
Cc1cc(C)nc(NNS(=O)(=O)c2ccc(Cl)cc2)n1,-13.2%,-7.6%
Cc1c(/C(O)=C2\C(=O)C(=O)N(CCCN(C)C)C2c2ccco2)cnn1-c1ccccc1 (configuration not stated),-7.9%,0.0%
O=C(c1cc(C(=O)NCc2ccccc2)c(=O)n(Cc2ccccc2)c1)c1cc(Cl)ccc1O,-20.6%,?
Cc1cc2c(=O)n(C)c(SCC(=O)NC3CCCC3)nc2s1,1.7%,-1.7%

# Laid out differently: 2 of the compounds above
# Order of results: VACV mCherry inh, Vaccinia Venus
CCc1c(C)nc(SCC(=O)c2ccc(C)c(C)c2)[nH]c1=O
 : i, -8.5%
O=C(O)CCCC(=O)Nc1cccc([N+](=O)[O-])c1
 : -13.1%, 4.0%

# (next part)
SMILES,VACV mCherry inh,Vaccinia Venus
O=C(CSc1cccc2cccnc12)N/N=C/c1cccnc1,11.2µM*,?
Cc1ccc2c(c1)N(CC(=O)NCC1CCCO1)C(=O)CO2 (configuration not stated),-5.0%,-5.4%
CN1CCN(C2Cc3cc(Cl)ccc3Sc3cc(F)ccc32)CC1 (configuration not stated),-19.5%,?
CCCCC[C@H](C)N1C[C@H](COCc2ccccc2)Oc2cc(N3CC[C@@H](O)C3)ccc2S1(=O)=O,9.2%,-8.2%
CCN(CC)C(=O)Cn1nc(-c2ccccc2O)nc1SCC(=O)Nc1ccc(OC)cc1,-21.4%,-6.8%
O=[N+]([O-])c1ccc(/C=N/n2cnc3ccccc32)s1,5.01µM*,6.31µM*
CN(C)CCCN(C(=O)c1cc2ccccc2oc1=O)c1nc2ccc(F)cc2s1,i,-4.0%
COc1ccc(S(=O)(=O)NCc2ccccn2)cc1,i,-4.5%
O=C(CSc1nc2c(cnn2-c2ccccc2)c(=O)[nH]1)N1N=C(c2cccs2)CC1c1ccc(F)cc1 (configuration not stated),160.8%[activator],119.5%[activator]
Nc1ccc(Sc2cnn(-c3ccccc3)c(=O)c2Cl)cc1,·,?
Cc1cccn2c(=O)c3cc(C(=O)NC4CCCCC4)c(=N)n(Cc4ccccc4)c3nc12,i,-7.6%
CC1CCCN(Cc2ccc(OCc3ccccc3)cc2)C1 (configuration not stated),-5.1%,-7.3%
COc1ccccc1OCCCn1c(-c2ccc(Cl)cc2)nc2ccccc2c1=O,i,-6.8%
CN(CC(=O)Nc1ccccc1N1CCOCC1)CC(=O)Nc1ccc(F)c(F)c1F,i,-7.5%
O=c1[nH]cnc2c1ccn2C1OC(CO)C(O)C1O (configuration not stated),?,-26.3%
Cc1cccc(NC(=O)c2ccccc2O)c1C,-11.3%,-25.9%
CC1(C(=O)NCCc2c[nH]c3ccccc23)CCN1CC1CCCCC1 (configuration not stated),-4.0%,-9.1%
Cc1cccc(C(=O)N2CCc3cc(CNC(=O)c4cc5ccccc5[nH]4)ccc32)c1,i,-11.5%
CCOC(=O)c1ccc2c(c1)n(Cc1ccccc1)c(C)[n+]2CC,i,-17.4%
Cc1ccc(C)c(NC(=O)CCN2CCN(C)CC2)c1,-16.4%,-3.4%
COCc1cccc(-c2csc(C(O)c3ccc(F)c(OC)c3)n2)c1 (configuration not stated),-10.5%,-11.1%
CCOC(=O)c1c(CN2CCNCC2)nc2ccc(Cl)cc2c1-c1ccccc1,10µM*,?
Cc1cc(C)c(NC(=O)C(C)n2nc(-c3ccc(C)c(C)c3)ccc2=O)c(C)c1 (configuration not stated),-19.5%,-9.6%
COc1cc(NC(=O)c2ccccc2)c(OC)cc1NC(=O)CN1CCOCC1,·,-6.5%
O=C(CNC(=S)N(Cc1ccccc1Cl)C1CCCC1)NCCN1CCOCC1,-1.5%,4.2%
# (more compounds)
SMILES,VACV mCherry inh,Vaccinia Venus
COCCCn1c(SCC(=O)N2CC(=O)Nc3ccccc32)nnc1-c1ccoc1C,0.4%,-6.8%
c1ccc(Cc2nnc(SCc3nc(-c4cccs4)no3)n2-c2ccccc2)cc1,-6.8%,-3.8%
O=c1c2c3c(sc2nc2n1CCCC2)CCCCC3,·,-24.5%
Cc1cc(=O)n2nc(N3CCC(C(=O)NC4CCCc5ccccc54)CC3)sc2n1 (configuration not stated),·,-6.7%
CN1CCC2CC1c1cc(-c3ccc(C(F)(F)F)cc3)ccc12 (configuration not stated),-28.4%,-9.2%
C#CCOCCOCCOCCNc1nc(N2CCN(C(=O)CCCCCCCCCCNC(=O)[C@@H](CCSC)n3cc(CCO)nn3)CC2)nc(N2CCN(C(=O)CCCCCCCCCCNC(=O)[C@H]([C@@H](C)CC)n3cc(CCCCCN)nn3)CC2)n1,-18.4%,10µM*
C[C@H](NC(=O)c1nc[nH]c1C(=O)N1CCc2ccccc2C1)C(=O)OC(C)(C)C,-2.2%,-28.1%
COCCOC(=O)c1c(N)n(Cc2ccco2)c2nc3ccccc3nc12,·,-2.3%
O=C(Cc1ccc(NC(=O)C2CCN(C(=O)C3CC3)CC2)cc1)Nc1cccc(C(=O)N2CCCC2)c1,i,3.2%
O=C(Cc1sc(Nc2ccccc2)nc1-c1ccccc1)NCc1ccccc1,-22.8%,?
O=[N+]([O-])c1cc([As](=O)(O)c2ccc(O)c([N+](=O)[O-])c2)ccc1O,4.2%,-6.9%
Cc1cc2cc3c(cc2nc1SCC(=O)Nc1c(C)cccc1C)CCC3,i,-5.7%
COc1ccccc1CNC(=O)CCC(=O)N1CCOc2ccc(Cl)cc21,-25.1%,-22.5%
CCc1ccc(-n2c(O)cnc2Nc2nc(C)cc(C)n2)cc1,i,-5.3%
CCOc1ccccc1NC(=O)CCCNC(=O)Cn1cnc2sc(C)c(C)c2c1=O,-23.4%,-11.8%
Cc1ccc(N2C(=O)c3ccc(C(=O)N4CCN(c5ccc(C)c(C)c5)CC4)cc3C2=O)cc1,i,0.3%
N#Cc1c(N)n(-c2cccc(Cl)c2)c2nc3ccccc3nc12,-11.9%,-3.4%
CCOC(=O)N1CCN(C(=O)Cc2ccsc2)CC1,-6.8%,7.9%
CC(C)Oc1ccc(CNS(=O)(=O)c2csc(C(N)=O)c2)cc1,-15.4%,-11.4%
Cc1ccc(Cn2c(=O)n(-c3cccc(C(F)(F)F)c3)c(=O)c3c(C)c(C)sc32)c(C)c1,-9.4%,-10.1%
CC(C)(C)CC(C)(C)N=C1Nc2cc(Cl)c(Cl)cc2NC12C[C@H]1CCC(=O)N3CC[C@@H](C2)[C@@H]13 (some centres not stated),-15.9%,-27.7%
O=C(c1ccccc1)C(CN1CCCCC1)c1ccccc1 (configuration not stated),?,?
COc1cccc(-c2cc3nc(C)cc(N4CCN(C(=O)c5ccoc5)CC4)n3n2)c1,i,-16.6%
Cc1ccc(-n2nc(C(=O)O)c3ccccc3c2=O)cc1C,-13.8%,-5.6%
CC1(c2nnnn2-c2ccc3c(c2)OCCO3)CCC(=O)N1CCOc1ccccc1 (configuration not stated),-11.4%,2.2%
# Following part:
SMILES,VACV mCherry inh,Vaccinia Venus
CC(=O)Oc1ccc2nc(/C=C/c3ccccc3)oc(=O)c2c1,i,-12.3%
Cc1cc(-n2cnc(-c3cn[nH]c3C)n2)no1,i,-15.0%
C/C(=N\NC(=O)c1ccccc1)c1ccc(C)c([N+](=O)[O-])c1,-21.9%,-4.0%
CCn1c(C)c(C)c2cc(C(=O)NCCCN3CCCCC3)ccc21,?,-19.1%&-3.9%
CC(C)c1ccc(C(O)Cc2nc3ccccc3n2C)cc1 (configuration not stated),i[7.34 µM],-17.7%[7.34 µM]
O=C(NCc1ccc2c(c1)CCN2C(=O)c1ccncc1)c1ccccc1Cl,-0.2%,-2.7%
CCc1ccc(N(C(=O)c2ccco2)C(C(=O)NC2CCCC2)c2ccco2)cc1 (configuration not stated),?,-21.2%
Cc1ccc(C(=O)N2CCC(C(=O)Nc3cccc([N+](=O)[O-])c3)CC2)cc1,?,-25.2%
COc1ccc2oc(C(=O)OCC(=O)Nc3ccc(C)c(S(=O)(=O)N4CCOCC4)c3)c(C)c2c1,-2.9%,-10.7%
CC1CC2c3cccc(C(=O)O)c3C(=O)N2c2ccc(Cl)cc21 (configuration not stated),i,-11.3%
Cc1nnc(NC(=O)CSc2nc(N)c(NC(=O)c3cccs3)c(=O)[nH]2)s1,2.6%,1.6%
Cc1cccc(N2C(=O)C(O)=C(C(=O)c3cccs3)C2c2ccc(F)cc2)n1 (configuration not stated),-2.5%,-17.5%
CCc1ccc(NC(=O)N2c3ccccc3Sc3ccccc32)cc1,-11.4%,-8.5%
N#Cc1c(-c2ccccc2)cc(-c2ccccc2)nc1SCC(=O)Nc1ccc(Cl)cc1,-12.9%,-10.2%
Cc1ccc2sc(C)[n+](CCC(C)S(=O)(=O)[O-])c2c1 (configuration not stated),-10.6%,-12.2%
CCn1nc(C(=O)Nc2ccc(C)c(C)c2)c(Cl)c1Cl,-11.9%,-7.8%
CC1(C)OC2COC(c3[nH]nc4c(=O)[nH]c(=O)[nH]c34)C2O1 (configuration not stated),i,-5.8%
CCOc1ccc(C(C)C)cc1S(=O)(=O)n1nc(C)cc1C,·,14.8%
CCNc1ccccc1CP(=O)(c1ccccc1)c1ccccc1O (configuration not stated),i,6.6%
CCC1(O)CCCC2C3CCC4CC(=O)CCC4(C)C3C(=O)CC21C (configuration not stated),-16.0%,-7.4%
COCCN(CCOC)CC(O)COC(c1ccccc1)c1ccccc1 (configuration not stated),0.8%,-2.6%
COc1cccc(CN2C(=O)c3ccccc3Sc3ccc(C(=O)NCCc4ccc(Cl)cc4)cc32)c1,-23.6%,-12.7%
CN(Cc1ccccc1)CC(O)COc1ccc(CNCCOc2cccnc2)cc1 (configuration not stated),-21.6%,-6.8%
CCc1ccc(C(O)c2ncc(-c3cccc(F)c3)[nH]2)cc1 (configuration not stated),2.9%,-14.1%
CC1(C)CN(c2ccsc2C(=O)O)C1=O,-13.6%,-6.8%

# Five entries picked at random from those above:
SMILES,VACV mCherry inh,Vaccinia Venus
CC1CC2c3cccc(C(=O)O)c3C(=O)N2c2ccc(Cl)cc21 (configuration not stated),i,-11.3%
CC(C)c1ccc(C(O)Cc2nc3ccccc3n2C)cc1 (configuration not stated),i[7.34 µM],-17.7%[7.34 µM]
CCc1ccc(C(O)c2ncc(-c3cccc(F)c3)[nH]2)cc1 (configuration not stated),2.9%,-14.1%
COc1ccc2oc(C(=O)OCC(=O)Nc3ccc(C)c(S(=O)(=O)N4CCOCC4)c3)c(C)c2c1,-2.9%,-10.7%
N#Cc1c(-c2ccccc2)cc(-c2ccccc2)nc1SCC(=O)Nc1ccc(Cl)cc1,-12.9%,-10.2%

# More records follow:
SMILES,VACV mCherry inh,Vaccinia Venus
O=c1[nH]c2ccccc2c2nc(-c3cccc(S(=O)(=O)N4CCCC4)c3)nn12,12.5%,-6.3%
CC(=O)Nc1cc(-c2cccc(NS(C)(=O)=O)c2)cn2c(-c3ccc(F)c(Cl)c3)cnc12,-9.4%,-17.3%
Cc1ccc(/C=C/C(=O)OCC(=O)NCc2cccs2)o1,-29.1%,15.2%
CC1(C(=O)Nc2ccc(F)cc2F)CCN1C(=O)Cc1ccccc1Cl (configuration not stated),i,-4.8%
Cc1nc(N2CCN(C(=O)c3ccco3)CC2)c2c3c(sc2n1)CCCC3,?,-21.9%
C=CCN1CC[C@]23c4c5ccc(O)c4OC2C(O)CC[C@@]3(O)[C@H]1C5 (some centres not stated),i,-5.5%
CC(NC(=O)c1ccc2c(c1)sc1nc(-c3ccc(F)cc3)cn12)C12CC3CC(CC(C3)C1)C2 (configuration not stated),-18.0%,-5.3%
COc1ccc(S(=O)(=O)N(C)C[C@H]2OCc3cnnn3CCCC(=O)N([C@H](C)CO)C[C@H]2C)cc1,-4.7%,-13.1%
OCC1CCCN(c2nc3cc4c(cc3cc2CNCc2cccs2)OCO4)C1 (configuration not stated),-8.7%,-4.4%
